Assay outcomes as filed in PubChem.
gsp antagonist – qHTS for Antagonists of gsp, the Etiologic Mutation Responsible for Fibrous Dysplasia/McCune-Albright Syndrome: qHTS. Potency, µM (top dose mostly 76.9 µM), for inactives: at the highest dose activity change, negative = inhibition, usual class: inhibitors. gsp-mutant cells, cAMP HTRF, 30 min; control for the full effect not named in the record. actives 0.4% (n = 340,000). AID 624288, 2012; active = falling curve of any shape with a large fitted effect; inconclusive = falling curve, mostly with a smaller effect; inactive = flat or rising curve; cell line not stated here;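 further: intracellular cAMP measured with PDE inhibitor Ro 20-1724 present during compound exposure; potency means the concentration at half of the fitted maximal effect; on the % scale 0 is the no-effect control and ±100 the full control effect; nearly all actives have a fitted effect of over 65% in size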
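Cells, 2000/well, grown 16–24 h in DMEM 10% FBS with 0.5 mg/ml G418, then compounds plus […] (300 uM addition stock), 30 min at 37C. cAMP read by HTRF (cAMP-d2 and anti-cAMP antibody-K in lysis buffer) after 30 min RT.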
ClpP mod – qHTS Assay for Activators of ClpP. ATP-dependent Clp protease proteolytic subunit (Bacillus subtilis (strain 168)), P80244. purified B. subtilis ClpP, FRET peptide cleavage, 20 min. Potency, µM (highest dose often 57.5 µM), inactives show at the top dose activity change, negative = active. actives 1.9% (n = 340,000). AID 651965, 2013; active = well fitted falling curve with a large enough effect; inconclusive = small, poorly fitted or top-dose-only effect; inactive = no such curve, though single readings can be large or run the other way; further: potency means the concentration at half of the fitted maximal effect; the source files actives as falling curves though it sought activators and does not explain the sign; nearly all actives have a fitted effect of over 65% in size; many hits overshoot -100%
Target sequence (P80244 whole entry, looked up): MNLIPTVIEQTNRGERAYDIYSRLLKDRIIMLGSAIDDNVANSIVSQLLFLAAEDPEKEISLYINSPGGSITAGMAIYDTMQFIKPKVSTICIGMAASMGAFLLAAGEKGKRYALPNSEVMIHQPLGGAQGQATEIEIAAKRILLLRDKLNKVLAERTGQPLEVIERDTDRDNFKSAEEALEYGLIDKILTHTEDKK
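ClpP 10 microg/mL final, pH 8 Tris/KCl buffer with BSA, glycerol, Tween-20; compound pinned in; FRET-FV substrate; RT 20 min; Ex320/Em430; ΔFRET vs ADEP 5.8 microM, DMSO, no enzyme.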
TRPML1 inh – qHTS for Inhibitors of the Human Mucolipin Transient Receptor Potential 1 (TRPML1); Mucolipin-1 (Homo sapiens), Q9GZU1; TRPML1-inducible cells, Ca2+ dye fluorescence, FDSS; active compounds read low; inhibition of EC80 agonist-evoked calcium signal; activity change, negative = inhibition, % (concentration not given with the values); actives 0.02% (n = 390,000); AID 624415, 2012; in the data active means activity change below about -50%; inconclusive means about -30% to -50%; inactive means above about -30%;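 further: stimulus is agonist 54-4 at its EC80 concentration; on the % scale 0 is the no-effect control and ±100 the full control effect; the text of the record puts the active cut at -80%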
Target sequence (Q9GZU1 whole entry, looked up): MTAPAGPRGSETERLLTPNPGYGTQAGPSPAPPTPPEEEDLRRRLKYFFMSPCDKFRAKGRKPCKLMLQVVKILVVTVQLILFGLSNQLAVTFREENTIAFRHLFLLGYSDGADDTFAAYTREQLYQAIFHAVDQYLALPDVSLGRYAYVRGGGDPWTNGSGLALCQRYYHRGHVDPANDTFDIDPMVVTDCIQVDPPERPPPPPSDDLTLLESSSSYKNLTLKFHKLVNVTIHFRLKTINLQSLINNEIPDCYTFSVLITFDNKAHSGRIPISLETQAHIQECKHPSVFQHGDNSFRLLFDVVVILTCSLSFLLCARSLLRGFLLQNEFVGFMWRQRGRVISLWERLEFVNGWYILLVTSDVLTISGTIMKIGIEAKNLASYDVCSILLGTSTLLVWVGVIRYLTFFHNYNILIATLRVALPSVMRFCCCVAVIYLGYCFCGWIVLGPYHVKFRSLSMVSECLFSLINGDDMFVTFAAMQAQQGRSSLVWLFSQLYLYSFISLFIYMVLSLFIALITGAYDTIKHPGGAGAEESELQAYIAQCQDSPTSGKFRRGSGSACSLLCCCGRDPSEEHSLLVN
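Calcium fluorescence in TRPML1-DL cells induced overnight with Tet: a 110 s read after compound pin addition, then a 110 s antagonist read after challenge with 54-4 at 4 uM final (EC80).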
TRPV1 PAM – HTS Assay for Compounds that Act as Potentiators of the Vanilloid Receptor 1 | TRPV1-expressing cells, Fluo-8 calcium influx, capsaicin EC20 potentiation; host cell line not named in the record; control for the full effect not named in the record | potentiation, % at 8.33 µM | actives 0.02% (n = 320,000); active means potentiation above 80%; inconclusive means 30% to 80%; inactive means below 30%; further: 0% is about no effect
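TRPV1-expressing cells were cultured overnight at 35.5C and loaded with Fluo-8 calcium dye for 40 to 90 min at room temperature. After a 10 s baseline, compound was added and calcium influx was read kinetically for 3 min (ex 480/em 520 nm).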
Menin-MLL FL inh – qHTS Assay for Inhibitors Targeting the Menin-MLL Interaction in MLL Related Leukemias: Competition With Fluorescein Labeled MLL-derived Peptide. Fluorescence polarization, fluorescein-MLL peptide displacement from menin. 290,000 tested, under 10 active. FP activity change, % at 61.4 µM; inconclusive = falling polarisation curve, or a change in total fluorescence; inactive = total fluorescence flat and polarisation flat or rising; no compound was filed as active; the % refers to the polarisation; negative = inhibition;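 further: % of control where 0% means no effect; inhibitors lower the polarisation; unlabelled MLL peptide was the positive control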
gsp agonist – qHTS for Agonist of gsp, the Etiologic Mutation Responsible for Fibrous Dysplasia/McCune-Albright Syndrome: qHTS; actives 0.13% (n = 340,000); AID 624287, 2012; gsp mutant cells, cAMP HTRF, 30 min; control for the full effect not named in the record; Potency, µM (series often up to 76.9 µM), for inactives: at the top dose activation (cAMP increase), most hits filed as activators; active = well fitted activation curve with a large enough effect; inconclusive = small, poorly fitted or top-dose-only effect, or another doubt; inactive = no such curve, though single readings can be large or run the other way; cell line not stated here;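 further: phosphodiesterase inhibitor Ro 20-1724 added with compounds to block cAMP breakdown; potency means the concentration at half of the fitted maximal effect; nearly all actives have a fitted effect of over 60% in size; about a fifth of the inactives were tested at one dose only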
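Cells stably selected in G418 were plated at 2000/well, grown 16-24 hr, then given compounds in DMSO with the PDE inhibitor […] (300 uM solution added) for 30 min at 37C; cAMP was read by HTRF.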
Sfp inh – qHTS Assay for Inhibitors of Bacillus subtilis Sfp phosphopantetheinyl transferase (PPTase) | Biochemical Sfp PPTase activity, qHTS | Potency, µM, for inactives: max response, negative = inhibition, actives largely listed as inhibitors | 4'-phosphopantetheinyl transferase ffp (Bacillus subtilis), Q9F4F7 | AID 1490, 2009 | actives 3.5% (n = 310,000); active means well fitted inhibition curve with a large enough effect; inconclusive means small, poorly fitted or top-dose-only effect, or another doubt; inactive means no such curve, though single readings can be large or run the other way;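 further: the enzyme is Sfp with the accession as filed and its product quenches rhodamine fluorescence; potency means the concentration at half of the fitted maximal effect; 0% = enzyme reaction without inhibitor and -100% = no enzyme wells; top concentration of the series not given in the record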
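Step 1, compound plus 15 nM Sfp-PPTase, 15 min, room temperature. Step 2, add rhodamine-CoA (5 uM) and BHQ-2-YbbR (12.5 uM). Step 3, read 525/598 nm fluorescence at 0 and 30 min.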
* = called active by the depositor; ? = inconclusive; . = not tested or not shown; & = joins results of further samples; [ ] = dose if it differs, or a comment.

The line under a structure holds: gsp antagonist, ClpP mod, TRPML1 inh, TRPV1 PAM, Menin-MLL FL inh, gsp agonist, Sfp inh
(1) C#CCn1c(=NC(=O)CSC(C)=O)sc2cc(F)ccc21
    8%, -12%, -1, -6, 0.0, 16%, 1%
(2) c1ccc(C2=Nn3c(Cn4nnc5ccccc54)nnc3SC2)cc1
    -1%, ., 16, -1, -0.7, 5%[15.4 µM], 24%
(3) O=C(Nc1n[nH]c(C(F)(F)F)n1)c1cccs1
    8%, ., -3, 3, -1.1, -23%[15.4 µM], 4%
(4) CN(C)CCCNc1nc(-c2ccccc2)nc2ccccc12
    18%, ., 19, ., 0.5, -3%, 18%
(5) CN1CCN(C(=O)c2cc3nc(-c4ccccc4)cc(C(F)(F)F)n3n2)CC1
    4%, -6.5%, -2, -2, 0.0, -39%[inhibitor], 12%
(6) O=C(COc1ccc(Br)cc1)Nc1ccccc1C(=O)NC1CC1
    -2%, ., -11, ?, ., 20%[15.4 µM], .
(7) O=C(COc1ccc(Cl)cc1)N(Cc1ccco1)C1CCS(=O)(=O)C1 (configuration not stated)
    4%, 1.2%, -15, -10, -0.2, 1%[15.4 µM], 8%
(8) CCOC(=O)c1cc(NC(=O)COC)ccc1O
    ., ., ., -7, 1.9, ., -16%
(9) CCCN1C(=S)SC(C)(C)C1/[N+]([O-])=C/c1ccc(S(=O)(=O)NC)cc1 (configuration not stated)
    6%, ., 16, ., 0.7, -1%[15.4 µM], 9%
(10) CN1CCCC1c1cccnc1 (configuration not stated)
    8%, -4.0%&-11%, ., ., 4.1, ., 18%
(11) CCN1CCN(C(=O)CN2C(=O)COc3ccc(C)cc32)CC1
    3%, ., 31, 7, ., 10%[15.4 µM], 21%
(12) COC(=O)c1ccc(COC(=O)C(CCS(C)(=O)=O)N2C(=O)c3ccccc3C2=O)cc1 (configuration not stated)
    6%, 0.8%, 0, -22, -1.9, 19%, 8%
(13) CCN(CC)S(=O)(=O)c1ccc(C(=O)Nc2cc(C)on2)cc1
    0%, ., 5, -3, 0.1, -5%[15.4 µM], 12%
(14) Cc1nc2cc(N)ccc2n1C1CCCCC1
    -8%, -13%, -8, -2, -0.1, ?, -19%
(15) COc1ccc2nccnc2c1[N+](=O)[O-]
    -2%, ., 36, 1, ?, ?, 7%

(further entries)
The line under a structure holds: gsp antagonist, ClpP mod, TRPML1 inh, TRPV1 PAM, Menin-MLL FL inh, gsp agonist, Sfp inh
(16) CCOC(=O)c1c(N)n(CCOC(=O)c2cccs2)c2nc3ccccc3nc12
    9%, 7.9µM*, 4, 23, 3.6, 2%, 6%
(17) NC(=O)c1ccc(C(F)(F)F)n(Cc2c(Cl)cccc2Cl)c1=O
    -26%, -0.7%, -3, -2, 0.0, 4%, 10%
(18) COCC(=O)NC(C)c1nc2ccccc2[nH]1 (configuration not stated)
    9%, -0.5%, 4, 1, -2.7, 0%, 8%
(19) C/C(=N\NC(=O)CNc1cccc(C(F)(F)F)c1)c1cccc(Br)c1
    5%, -1.4%, 0, 3, 1.8, 8%, 8%
(20) Cc1sc2nc(C3CCCCC3)nc(SCC(=O)N3CC(=O)Nc4ccccc43)c2c1C
    7%, -1.9%, -3, ., 4.9, -51%[inhibitor], 0%
(21) COc1ccccc1NS(=O)(=O)c1ccc(C(=O)N2CCN(c3ccccc3)CC2)cc1
    -13%, 1.1%, 16, 3, ., -8%, .
(22) Cc1cccc(CN2CCCC(C(=O)N3CCCCC3)C2)c1 (configuration not stated)
    6%, -0.3%, -1, -4, -0.1, 0%, ?
(23) COCCCN1C(=O)C(=O)/C(=C(/O)c2ccc(S(=O)(=O)N3CCCCC3)cc2)C1c1ccc(O)cc1 (configuration not stated)
    8%, -0.4%, 0, -1, -7.4, -48%[inhibitor], -10%
(24) Cc1ccc(NC(=O)COC(=O)CCc2c(C)nc3ncnn3c2C)cc1
    0%, ., -7, ., ., ?, .
(25) Cc1cccc(NC(=O)COC(=O)C2COc3ccccc3O2)c1C (configuration not stated)
    5%, -2.1%, 11, ., ., -4%, .
(26) O=C1CC(c2ccccc2)CC(O)=C1C=NC1CCCCC1 (configuration not stated)
    -11%, -0.1%, -1, -11, 2.6, -7%, 7%
(27) O=C(Nc1ccc([N+](=O)[O-])cn1)c1ccc2c(c1)OCO2
    -5%, ., -7, -6, -1.1, 7%[15.4 µM], 22%
(28) Cc1ccc(C(=O)N(CCc2ccccc2)Cc2ccccc2)cc1S(=O)(=O)N1CCOCC1
    -33%, -1.3%, 49, ., ., 0%, .
(29) COc1ccc(NC(=O)c2cc(-c3cccnc3)nc3c(C)c(C)ccc23)c(OC)c1
    -12%, -0.2%, 16, 0, 5.1, 1%, -11%
(30) COc1ccc(OC)c(N(CC(=O)Nc2cccnc2)S(=O)(=O)c2ccc(C)cc2)c1
    0%, 0.1%, 3, -23, 0.4, 2%, -8%

Exported with one line to a screen: part of the list above
24) Cc1ccc(NC(=O)COC(=O)CCc2c(C)nc3ncnn3c2C)cc1
6) O=C(COc1ccc(Br)cc1)Nc1ccccc1C(=O)NC1CC1
5) CN1CCN(C(=O)c2cc3nc(-c4ccccc4)cc(C(F)(F)F)n3n2)CC1
20) Cc1sc2nc(C3CCCCC3)nc(SCC(=O)N3CC(=O)Nc4ccccc43)c2c1C

compound no. | 24 | 6 | 5 | 20
gsp antagonist | 0% | -2% | 4% | 7%
ClpP mod | . | . | -6.5% | -1.9%
TRPML1 inh | -7 | -11 | -2 | -3
TRPV1 PAM | . | ? | -2 | .
Menin-MLL FL inh | . | . | 0.0 | 4.9
gsp agonist | ? | 20%[15.4 µM] | -39%[inhibitor] | -51%[inhibitor]
Sfp inh | . | . | 12% | 0%

More entries follow.
The line under a structure holds: gsp antagonist, ClpP mod, TRPML1 inh, TRPV1 PAM, Menin-MLL FL inh, gsp agonist, Sfp inh
(31) CCCn1c(N)c(N(CCOC)C(=O)C(C)Oc2ccc(F)cc2)c(=O)[nH]c1=O (configuration not stated)
    13%, ., -6, -5, ., -4%[15.4 µM], .
(32) Cc1ccc(C(=O)NCCNC(=O)COc2ccc(C)c(C)c2)cn1
    8%, ., -10, 1, -3.9, 3%[15.4 µM], 22%
(33) CC(/C=N/NC(=O)c1cc(C(C)(C)C)[nH]n1)=C\c1ccccc1
    -25%, -3.0%, 19, 12, 0.7, ?, 12%
(34) Cc1ccc2cc(C(c3nnnn3C3CCCC3)N(Cc3ccco3)Cc3cccs3)c(=O)[nH]c2c1 (configuration not stated)
    1%, ?, 17, 8, 1.5, -2%, -11%
(35) COC(=O)CN1C(=O)[C@H]2[C@@H](c3ccc(C)o3)N3C(=O)CN(Cc4ccccn4)C(=O)[C@@]3(Cc3ccccc3)[C@H]2C1=O
    9%, -1.0%, 3, 5, 1.3, ., 11%
(36) Nc1nnc(/C=C/c2cccc([N+](=O)[O-])c2)s1
    -4%, -2.7%, ., 0, -1.1, -35%, -3%
(37) CCOc1ccc(C(=O)N/N=C/c2cc(Cl)ccc2[N+](=O)[O-])cc1
    8%, -2.7%, -21, 2, 4.5, 0%[15.4 µM], -11%
(38) COCC1CCN(Cc2nc(COc3ccccc3)no2)C1 (configuration not stated)
    15%, ., -7, 10, -0.1, 17%, -22%
(39) CNS(=O)(=O)Cc1ccc2[nH]cc(CCN(C)C)c2c1
    -8%&-5%, 1.2%&0.0%, 7&-11, 7, -1.9&-0.9, ., 8%&12%
(40) Cc1ccccc1N/C(=N/S(=O)(=O)c1ccccc1)c1ccc(F)cc1
    -2%, -2.3%, ., 14, 2.6, 8%, -10%
(41) Cc1c(NC(=O)CSc2nnc(-c3ccncc3)n2C)c(=O)n(-c2ccccc2)n1C
    ., -1.6%, 0, ., ., -1%, .
(42) COc1ccc(/C=N/NC(=O)COc2ccc3ccccc3c2)c(C(=O)O)c1OC
    5%, 0.4%, -10, 20, -2.6, -3%[15.4 µM], 14%
(43) O=C(CCN1C(=O)C2C3CCC(C3)C2C1=O)Nc1ccc(F)cc1 (configuration not stated)
    7%, ., 4, 13, -1.0, 20%, 9%
(44) O=C(COC(=O)c1cccnc1Cl)Nc1nc(-c2ccccc2)cs1
    -31%, -0.2%, 10, 6, -3.2, -3%, -3%
(45) COc1ccc(C(=O)NCC(=O)c2ccccc2)cc1
    0%, 1.5%, 5, -12, -0.6, -2%, 4%

(list continues)
The line under a structure holds: gsp antagonist, ClpP mod, TRPML1 inh, TRPV1 PAM, Menin-MLL FL inh, gsp agonist, Sfp inh
(46) CN(C)C(=O)c1ccc(NC(=O)CC2SC(N3CCCC3)=NC2=O)cc1 (configuration not stated)
    8%, -2.9%, 9, -5, ., -8%[15.4 µM], .
(47) CCc1ccc(S(=O)(=O)NCc2cn3ccsc3n2)s1
    3%, 0.3%, -18, -5, -1.3, -3%, 3%
(48) Cc1ccc(C)c(S(=O)(=O)N2CCNCC2)c1
    ., ., -19, 8, -0.5, -25%[15.4 µM], 3%
(49) Cc1cc(=O)[nH]c(N/N=C/c2cc(C)n(CC(F)(F)F)c2C)n1
    4%, -11%, -8, -1, 3.5, 11%, ?
(50) Cc1ccccc1C(=O)NCC(=O)O
    10%, 2.7%, 9, 10, -7.8, -3%, 12%
(51) CC(=O)c1ccc(NC(=O)Nc2ccccc2)cc1
    -7%, 0.3%, -9, -26, 0.3, -30%, 5%
(52) Cn1c(CSCc2ccccc2Cl)n[nH]c1=S
    -1%, -0.1%, -7, -5, 3.4, -61%[inhibitor], -11%
